From PubChem BioAssay
Mtb bLac sens – beta-lactam sensitization of Mtb H37Rv, H37Rv; M. tuberculosis H37Rv growth with meropenem, percent inhibition; hits of this screen are not shown here; inhibition, % at 25 µM; 330,000 tested, 0.27% active; AID 434955, 2010;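 active = about 74% or more and at least 40 points above the plate without the antibiotic, then above 30% in a dose series; inconclusive = first-round hits that could not be retested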;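 also: growth measured after seven days incubation then overnight dye step; 0% = bacteria only wells and 100% = bacteria with antibiotic; twin plates without the antibiotic show which effects depend on it; some results filed as inactive read as strong as hits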
RecA intein inh – Mtb RecA intein splicing inhibitors, primary screen, biochemical, fluorescence, HTS; AID 2221, 2009; inhibition, %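 (about 9 µM by stock and volumes)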; Protein RecA (Mycobacterium tuberculosis (strain ATCC 25618 / H37Rv)), P9WHJ3; cell-free RecA intein splicing; 290,000 tested, 0.75% active; in the data active = inhibition above about 30%; inconclusive = no clear call, values can overlap the other calls;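 also: 0% = vehicle wells and 100% = reference inhibitor control wells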
Target sequence (P9WHJ3 whole entry, looked up): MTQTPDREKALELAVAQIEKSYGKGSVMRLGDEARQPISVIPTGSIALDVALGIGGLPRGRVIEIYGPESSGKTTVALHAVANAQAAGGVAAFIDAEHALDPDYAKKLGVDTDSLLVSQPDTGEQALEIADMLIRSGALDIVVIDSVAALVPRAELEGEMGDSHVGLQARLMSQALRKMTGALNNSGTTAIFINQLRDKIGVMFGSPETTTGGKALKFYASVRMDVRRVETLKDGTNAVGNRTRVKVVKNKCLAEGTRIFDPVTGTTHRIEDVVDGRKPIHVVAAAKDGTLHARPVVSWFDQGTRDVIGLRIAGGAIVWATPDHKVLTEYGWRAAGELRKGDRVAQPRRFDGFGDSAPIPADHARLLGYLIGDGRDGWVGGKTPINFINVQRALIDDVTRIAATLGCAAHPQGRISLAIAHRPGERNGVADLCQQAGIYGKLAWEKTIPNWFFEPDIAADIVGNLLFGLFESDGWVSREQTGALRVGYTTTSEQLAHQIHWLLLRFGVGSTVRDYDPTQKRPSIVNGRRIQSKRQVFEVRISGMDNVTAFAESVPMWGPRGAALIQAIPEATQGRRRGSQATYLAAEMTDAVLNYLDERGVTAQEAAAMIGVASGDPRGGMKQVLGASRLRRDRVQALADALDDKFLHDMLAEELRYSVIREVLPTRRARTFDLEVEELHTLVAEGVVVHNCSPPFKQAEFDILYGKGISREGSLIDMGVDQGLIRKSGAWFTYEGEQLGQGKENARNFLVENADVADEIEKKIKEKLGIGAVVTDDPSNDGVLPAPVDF
Mtb H37Rv – M. tuberculosis H37Rv growth inhibitors, H37Rv strain (AID 1626) | M. tuberculosis H37Rv growth inhibition; higher % means a stronger effect | one-dose inhibition, % at 10 µM; IC50 in µM for titrated hits | 220,000 tested, 0.95% active;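 active = confirmed in a dose series; inconclusive = inhibition above 80% but not taken into the dose series; inactive = below 80% or under 30% at every dose of the series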;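 also: bacteria incubated seven days before Alamar blue readout; 0% = bacteria only wells and 100% = bacteria with antibiotic wells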
Arbovirus anti – antivirals against arbovirus infection, primary screen, cell-based, full library, 10K replicate subset; 200,000 tested, 0.37% active; inhibition, % at 10 µM; arbovirus infection cell-based antiviral screen;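 active = inhibition from about 30%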;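 also: bluetongue infection of BSR cells; cell survival read as ATP light after 72 h; 0% = infected wells without compound and 100% = uninfected wells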
YopH inh – YopH tyrosine phosphatase inhibitors, primary screen, biochemical, fluorescence Ex485/Em525 | YopH tyrosine phosphatase [Yersinia enterocolitica] | inhibition, %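 (about 10 µM by stock and volumes)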 | 140,000 tested, 0.16% active | AID 898, 2007;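 active = inhibition of 50% or more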;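 also: controls were vehicle for no effect and minimum signal wells for full effect; inactives centre near -20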
Arbovirus anti repeat – also measured in Arbovirus anti; calls as there; inhibition, %; measured here: 10K subset replicate screen; many hits read low in the repeat;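 first of two repeat runs on a subset; 0% = infected and 100% = uninfected wells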
* hit, by the source's call; ? = inconclusive; / = not tested or not shown.

SMILES	Mtb bLac sens	RecA intein inh	Mtb H37Rv	Arbovirus anti	YopH inh	others
CCCCC(=O)Nc1cc(OC)c(NC(=S)NC)cc1OC	-6	2.6	0%	-3	/
CC1=NN(C(=O)c2csc(C(C)C)c2)C(O)(C(F)(F)F)C1 (stereo not given)	6	-3.9	10%	-14	-16
COc1ccc(CC(=O)NC(CC(=O)O)c2cccc([N+](=O)[O-])c2)cc1 (stereo not given)	0	6.7	-11%	8	/
CCCCn1c(N)c(N(Cc2ccccc2OC)C(=O)CN2C(=O)NC(C)(c3ccccc3)C2=O)c(=O)[nH]c1=O (stereo not given)	-14	2.3	/	/	/
CCCC(C(=O)NC1CCCC1)N(Cc1ccc2c(c1)OCO2)C(=O)c1snc(C(N)=O)c1N (stereo not given)	4	0.9	-6%	-17	-11
COc1cccc(NC(=O)CCC2CCN(C(=O)c3c(C)noc3C)CC2)c1	8	2.2	/	/	/
COC(=O)CNC(=O)c1ccc(=O)oc1	-4	/	-10%	6	-34
CSc1nc(-c2ccc(C)cc2)[nH]c1S(=O)(=O)c1ccccc1	-2	1.8	-5%	6	18
Cc1ccc(S(=O)(=O)NCCOc2nc(N3CCOCC3)nc(N3CCOCC3)n2)cc1	3	2.2	1%	8	-29
CC(=O)Nc1ccc(N2CC(C)(C)C2=O)cc1	-1	-1.0	-5%	11	/
Nc1ccccc1C(=O)NCCCN1CCN(c2cccc(Cl)c2)CC1	-1	3.1	/	/	/
Cc1ccccc1-n1c(SCC(=O)N2CCC(C(=O)O)CC2)nnc1-c1ccncc1	-4	0.8	-4%	2	/
CCCC(=O)Nc1ccc(OCC(O)CNC(C)C)c(C(C)=O)c1 (stereo not given)	-8	1.3	0%	5	-30
Cc1noc(C)c1C(=O)N1CCC(C(=O)c2ccc(F)cc2F)CC1	1	/	-4%	/	/
O=C(OCc1csc(-c2ccccc2)n1)c1ccc(O)cc1	-4	11	-4%	-2	/
NC1=NC(=O)/C(=C/c2cn(Cc3ccccc3)c3ccccc23)S1	4	1.0	15%	7	-10
CCOC(=O)c1c(NC(=O)COC(=O)CNC(=O)c2ccco2)sc(C)c1C	3	-0.2	-2%	4	-20
Fc1ccc(CNCCC(Cc2ccccc2)c2ccco2)cc1 (stereo not given)	-9	0.9	18%	/	/
COc1ccc(NC(=O)CSc2nnc(-c3ccccn3)n2N)c(OC)c1	-18	-0.4	-2%	9	-58
CCOC(=O)C1=C(CC)Nc2ccccc2N/C1=N\S(=O)(=O)c1ccc(C(=O)OCC)cc1	-4	3.0	-2%	21	/

Seven compounds drawn at random from those above:
SMILES	Mtb bLac sens	RecA intein inh	Mtb H37Rv	Arbovirus anti	YopH inh	others
COc1ccc(NC(=O)CSc2nnc(-c3ccccn3)n2N)c(OC)c1	-18	-0.4	-2%	9	-58
Fc1ccc(CNCCC(Cc2ccccc2)c2ccco2)cc1 (stereo not given)	-9	0.9	18%	/	/
Cc1ccccc1-n1c(SCC(=O)N2CCC(C(=O)O)CC2)nnc1-c1ccncc1	-4	0.8	-4%	2	/
O=C(OCc1csc(-c2ccccc2)n1)c1ccc(O)cc1	-4	11	-4%	-2	/
CCOC(=O)C1=C(CC)Nc2ccccc2N/C1=N\S(=O)(=O)c1ccc(C(=O)OCC)cc1	-4	3.0	-2%	21	/
CCCC(=O)Nc1ccc(OCC(O)CNC(C)C)c(C(C)=O)c1 (stereo not given)	-8	1.3	0%	5	-30
CCOC(=O)c1c(NC(=O)COC(=O)CNC(=O)c2ccco2)sc(C)c1C	3	-0.2	-2%	4	-20

Next compounds follow.
SMILES	Mtb bLac sens	RecA intein inh	Mtb H37Rv	Arbovirus anti	YopH inh	others
O=C1CN(C(=O)CSc2nc3ccccc3c(=O)n2Cc2ccc(F)cc2)c2ccccc2N1	-2	15	7%	-8	-33
COCCCNC(=O)C1CCN(S(=O)(=O)N(CC(C)C)CC(C)C)CC1	-4	-0.6	0%	2	-19
COc1ccccc1CCNS(=O)(=O)CCNC(=O)c1ccc2c(c1)OCO2	-12	-1.8	/	/	/
CC1(C)Cc2[nH]c(=O)c(C#N)cc2CS1	-18	-1.9	-7%	0	-13
CC(C)C(=O)N/N=C/c1ccc(OCc2ccccc2)cc1	9	-3.5	/	6	-50
CC(C)NC(=O)CSc1ccccc1C(=O)NNC(=O)Cn1ccc(C(F)(F)F)n1	-12	-3.5	/	/	/
CNC(=O)c1[nH]cnc1C(=O)N[C@@H](Cc1ccccc1)C(=O)OCc1ccccc1	-12	4.1	-10%	-2	/
CCOc1ccc(-c2nnc(SCC(=O)N3CCN(c4ccccc4)CC3)o2)cc1	1	-0.5	-4%	-1	-6	Arbovirus anti repeat=3
CCn1c(SCC(=O)N(C)Cc2ccc(OC)c(F)c2)nc2cc(S(N)(=O)=O)ccc21	3	0.8	/	/	/
CCC(=O)N1CCc2cc(S(=O)(=O)NC(C(=O)Nc3cccc(C)n3)C(C)C)ccc21 (stereo not given)	-4	-0.4	4%	-5	-43
CCCC(=O)Nc1ccc(C(=O)N/N=C/c2cccnc2)cc1	-5	-1.1	-10%	3	-14
Cc1ccc(C)c(S(=O)(=O)N2CCCCC2CCNC(=O)C(=O)NCc2ccccc2)c1 (stereo not given)	-4	0.1	/	/	/
CN1C(=O)C(Cc2ccc3c(c2)OCO3)C(=O)N(C)C1=O	-5	30*	-3%	5	-28
Cc1ccc(S(=O)(=O)N2CCC(=O)N(C(COCc3ccc(C(F)(F)F)cc3)Cc3ccccc3)CC2)cc1 (stereo not given)	7	2.2	18%	4	-21
COc1ccc(C(=O)C2CCN(C(=S)NCCc3ccccc3)CC2)cc1	-1	-1.9	4%	4	/
O=C(CN1C(=O)c2ccccc2S1(=O)=O)N1CCN(c2ccccc2)CC1	-9	0.8	-1%	5	-8
COc1ccc(NC(=O)CC2C(=O)N(c3cccc(OC)c3)C(=O)N2CCC(C)C)cc1 (stereo not given)	-4	-0.5	2%	-6	-4
Cc1cccc2nc3c(nc12)-c1ccccc1C3=O	33	4.3	66%	/	/
COc1cc(NC(=O)CC(C)n2ccnc2)cc(OC)c1 (stereo not given)	2	-0.8	/	/	/
O=C(c1ccccc1/S(=N/S(=O)(=O)c1ccccc1)N1CCOCC1)N1CCOCC1 (stereo not given)	-2	-2.1	2%	-1	-37
CCOc1cccc(NCc2cc3c(C(C)(C)C)nn(-c4ccccc4)c3[nH]c2=O)c1	3	4.0	71%	-35	-33
CCc1c(C)c2cc(Cl)c(O)c(CN3CCCC3)c2oc1=O	14	-97	/	/	/
Cc1cc(C(=O)Cn2nnc3ccccc3c2=O)c(C)n1-c1c(C)n(C)n(-c2ccccc2)c1=O	-1	2.3	-5%	1	-22
Cc1cc2oc3ccc(NCCC4CCCN4C)cc3c(=O)c2cc1C (stereo not given)	32	-29	11%	/	/
Cc1ccc(N=Cc2nc(-c3ccc(C)cc3)oc2O)cc1	/	-1.6	4%	-4	/
Clc1ccc(Nc2ncn[nH]2)cc1	98	-1.4	77%	-4	-14
COc1ccc(NC(=O)N2CCCC(CNS(=O)(=O)c3cccs3)C2)c(C)c1 (stereo not given)	-1	0.2	-8%	8	/
COc1ccccc1COn1c(=O)c(-c2ccco2)[n+]([O-])c2ccccc21	2	-2.7	2%	-5	/
Cc1ccc(N=Cc2cc3c(cc2[N+](=O)[O-])OCO3)cc1[N+](=O)[O-]	-3	-0.7	/	/	/
Cc1nnc(SCC(=O)Nc2nnc(SCc3cccc(Br)c3)s2)s1	-1	-0.3	2%	29	-26

At a glance, part of the list above:
SMILES	Mtb bLac sens	RecA intein inh	Mtb H37Rv	Arbovirus anti	YopH inh	others
Cc1cc(C(=O)Cn2nnc3ccccc3c2=O)c(C)n1-c1c(C)n(C)n(-c2ccccc2)c1=O	-1	2.3	-5%	1	-22
Cc1cc2oc3ccc(NCCC4CCCN4C)cc3c(=O)c2cc1C (stereo not given)	32	-29	11%	/	/

Further records
SMILES	Mtb bLac sens	RecA intein inh	Mtb H37Rv	Arbovirus anti	YopH inh	others
Cc1ccc(C)c(N(C)S(=O)(=O)c2ccc3c(c2)oc(=O)n3C)c1	3	-1.8	/	/	/
COCCNc1nnc(SCC(=O)c2ccc3c(c2)OCO3)s1	-6	0.8	-10%	1	-46
CC(C)OCC(O)CN1CCC(Cc2ccccc2)CC1 (stereo not given)	0	0.9	/	/	/
CCC(=NC(C)c1ccccc1)c1c(O)[nH]c(=O)[nH]c1=O (stereo not given)	-6	-6.0	-4%	/	/
COc1ccc(CNC(=O)c2cc(-c3cc(C)cc(C)c3O)n[nH]2)cc1	-3	-2.0	5%	/	/
N=C1/C(=C/c2ccc(OC(=O)c3ccco3)cc2)C(=O)N=C2SC=CN12	100	4.7	>100µM*	-2	/
NC(=O)N/N=C\c1cccs1	3	-0.9	2%	/	/
CC(=O)Nc1ccc(Nc2cc(-c3ccccc3)nc3ncnn23)cc1	1	-0.7	1%	-10	/
Cc1ccc(NC(=O)Cn2nnc(C(=O)NCc3ccccc3)c2N)cc1C	-19	0.0	-2%	-4	-31
O=C(Nc1ccc(N2CCOCC2)cc1)c1nc2ccccc2s1	0	2.2	3%	/	/
Cc1ccc(C)c(N2CCN(S(=O)(=O)c3ccc4c(c3)C(C)(C)C(=O)N4C)CC2)c1	?	10	/	/	/
O=CC(Br)P(=O)(N1CCOCC1)N1CCOCC1 (stereo not given)	-2	0.3	-7%	/	/
O=C(/C=C/c1cccs1)c1ccc(NC(=O)c2cccc(Br)c2)cc1	73	4.2	5%	-9	-35
Cc1ccc2nc(-c3ccc(NC(=O)CN4C(=O)c5ccccc5C4=O)cc3)sc2c1	7	0.9	-14%	-9	-17
CC(C)NC(=O)COC(=O)c1ccc(Oc2ccccc2)cc1	-5	/	-7%	7	-19
O=C(CSc1nc2c(c(=O)n1-c1ccccc1)SCC2)N1CCN(c2ccccc2)CC1	-5	-0.4	2%	7	-27
COc1ccc(Cl)cc1NC(=O)NC1CCCCC1	-7	-2.8	-5%	-11	-27
CCCNC(=O)CSc1nc2[nH]ncc2c(=O)[nH]1	6	0.4	1%	7	/
O=C(NN=C1c2ccccc2-c2ccccc21)c1cccc(Br)c1	90	0.7	55%	-17	-3
CC1CN(c2ccnc3cc(Cl)ccc23)CC(C)O1 (stereo not given)	1	-0.8	/	/	/
CCOC(=O)N1CCN(C(=O)c2n[nH]c(=O)c3ccccc23)CC1	-5	-0.2	-3%	3	-34
Cc1ccc(S(=O)(=O)N2CC(O)CC2C(=O)OCc2nc3sc(C)c(C)c3c(=O)[nH]2)cc1 (stereo not given)	-2	-2.0	1%	13	-21
CC(=O)NC1CC(C)(C)N(OC(C)=O)C(C)(C)C1	/	2.9	0%	8	26
CC1CCN(S(=O)(=O)c2cccc(-c3csc(-c4cccnc4)n3)c2)CC1	-2	1.0	5%	-10	-49
Cc1cccc(-n2ccc(=O)c(C(=O)Nc3ccc(S(=O)(=O)N4CCOCC4)cc3)n2)c1	-2	-1.0	/	/	/
COC(=O)C1=C(C)NC(=S)NC1c1ccc(-c2cccc(Cl)c2)o1 (stereo not given)	37	17	1%	-3	-17
Cn1cccc1/C=N/NC(=O)c1cccs1	-1	-3.6	/	/	/
CCOC(=O)/C(=C\c1c[nH]c2ccccc12)NC(C)=O	0	0.3	3%	0	-31
CCOC(=O)c1[nH]cnc1C(=O)Nc1cccc(N)n1	-20	-3.5	-1%	-1	/
CC1CC(=O)C2=C(C1)OC(N)=C(C#N)C2c1coc2ccccc2c1=O (stereo not given)	1	-1.6	3%	-1	-25
Cc1cc(Cl)ccc1OCc1n[nH]c(=S)n1C1CCCCC1	2	16	-3%	3	-7
Cc1ccc(S(=O)(=O)N(c2cc(Cl)c(O)c(Cl)c2)P(=O)(OC(C)C)OC(C)C)cc1	18	-5.0	9%	8	/
CSCCC(NS(=O)(=O)/C=C/c1ccccc1)C(=O)N1CCC(C)CC1 (stereo not given)	-4	-1.6	6%	-8	9
COc1ccc(S(=O)(=O)NCc2ccco2)cc1C(=O)N1CCOCC1	3	13	/	/	/
O=C(COc1ccc2ccccc2c1)Nc1nccs1	90	4.3	>100µM*	8	/
COc1ccc(/C=N/n2c(-c3cccs3)n[nH]c2=S)cc1	-8	-0.6	4%	-1	-27
NCCCCCC(=O)N/N=C/c1ccc2nccnc2c1	-5	1.1	/	/	/
CCNC(=O)N1CCN(C(=O)NCC)CC1	-5	0.9	-2%	-2	/
CC(=O)c1ccc(-c2ccc(C(=O)N(C)c3c(N)n(Cc4ccccc4)c(=O)[nH]c3=O)o2)cc1	-2	-3.8	/	/	/
COc1cccc(CC(=O)Nc2ccc3c(c2)CCC3)c1	-5	2.4	/	/	/

These rows are one share of the data; count on the stated rates, not on these rows.
